Pin1 inhibitor – human Pin1 inhibition | Q13526 | Pin1 FP peptide displacement, HiFluor488, 10 min | Potency, µM (top dose mostly 115 µM), without a hit: at the highest dose activity, negative = inhibition, most hits filed as inhibitors | 390,000 tested, 0.009% active | AID 504891; active means well fitted inhibition curve with a large enough effect in the polarisation, with a control signal flat, not every such curve was filed as active; inconclusive means small, poorly fitted or top-dose-only effect, or effect the other way, or a change in a side signal; inactive means no such curve, though single readings can be large or run the other way; the % refers to the polarisation
Target sequence (Q13526 whole entry, looked up): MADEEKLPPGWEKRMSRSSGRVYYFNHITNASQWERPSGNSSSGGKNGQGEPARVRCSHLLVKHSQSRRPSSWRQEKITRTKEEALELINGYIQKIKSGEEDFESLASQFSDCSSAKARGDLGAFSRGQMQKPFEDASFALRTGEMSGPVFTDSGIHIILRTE
GLS inhibitor – glutaminase GLS (human) inhibition; O94925; GLS enzymatic activity, qHTS titration; Potency, µM (series often up to 45.5 µM), without a hit: at the highest dose activity change, negative = inhibition, usual class: inhibitors; 410,000 tested, 0.21% active; AID 624170
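Coupled fluorescence readout: glutamate oxidase/HRP/Amplex Red detect glutamate formed by hKGA from L-glutamine (1 mM solution added). Buffer 45 mM KH2PO4 pH 8.2, 0.02% Tween-20; reads at t0 and 30 min RT.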
Tb PGK inh – blocks T. brucei phosphoglycerate kinase; 380,000 tested, 0.043% active; AID 602233; PGK/GAPDH coupled, Kinase-Glo luminescence, 60 min; P07378; Potency, µM (doses to about 57.5 µM), for the others: at the top dose activity change, negative = inhibition, usual class: inhibitors; further: nearly all actives have a fitted effect of over 60% in size
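Recombinant glycosomal PGK reaction used 1,3-bisphosphoglycerate generated in-well by GAPDH (100nM final) in 100mM TEA pH 7.6, 5mM MgCl2, 0.01% Tween-20. After 60 minutes at room temperature, ATP was read by Kinase-Glo Plus luminescence end-point.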
* hit, by the source's call; ? = inconclusive; · = not tested or not shown; & = joins results of further samples; [ ] = dose if it differs, or a comment. Unless noted, the call rests on the fitted dose curve; in most records, active means well fitted curve in the direction sought with a large enough effect; inconclusive means small, poorly fitted or top-dose-only effect, or another doubt; inactive means no such curve, though single readings can be large; an effect the other way counts as inactive or inconclusive. On the % scale 0 is the no-effect control and ±100 the full control effect; potency means the concentration at half of the fitted maximal effect.

O=C(CSc1nccc(=O)[nH]1)NCc1ccco1
- Pin1 inhibitor = 0.3%
- GLS inhibitor = -19.3%
- Tb PGK inh = ?
Cc1ccc(C(=O)O[C@H](C(=O)O)[C@H](OC(=O)c2ccc(C)cc2)C(=O)O)cc1
- Pin1 inhibitor = -10.0%
- GLS inhibitor = 0.4%
- Tb PGK inh = 2.0%
CN1[C@@H]2CC[C@H]1CC(OC(=O)[C@H](CO)c1ccccc1)C2 (some centres undefined)
- Pin1 inhibitor = -10.9%
- GLS inhibitor = -2.9%
- Tb PGK inh = -0.2%
CN1[C@@H]2CC[C@H]1CC(OC(=O)C(CO)c1ccccc1)C2 (some centres undefined)
- Pin1 inhibitor = 3.4%
- GLS inhibitor = 0.6%&-4.0%
- Tb PGK inh = 1.2%
O=C(O)CC(O)C(=O)O (centres undefined)
- Pin1 inhibitor = -3.7%
- GLS inhibitor = -2.7%&4.5%
- Tb PGK inh = -7.1%
N[C@H](CO)C(=O)O
- Pin1 inhibitor = ·
- GLS inhibitor = -17.7%
- Tb PGK inh = ·
Cc1cc(C)c2nc(C)cc(N/N=C/c3ccc(O)cc3)c2c1
- Pin1 inhibitor = -1.3%
- GLS inhibitor = 35.6%[activator]
- Tb PGK inh = -9.8%
C(=C/c1ccccc1)/CN1CCN(C(c2ccccc2)c2ccccc2)CC1
- Pin1 inhibitor = ·
- GLS inhibitor = -24.5%[20 µM]
- Tb PGK inh = ·
COc1ccc2cc([C@@H](C)C(=O)O)ccc2c1
- Pin1 inhibitor = -15.9%
- GLS inhibitor = -0.4%
- Tb PGK inh = -23.5%

Exported with two lines to a compound: 2 of the compounds above.
Below each SMILES – Pin1 inhibitor | GLS inhibitor | Tb PGK inh
Cc1ccc(C(=O)O[C@H](C(=O)O)[C@H](OC(=O)c2ccc(C)cc2)C(=O)O)cc1
 : -10.0% | 0.4% | 2.0%
CN1[C@@H]2CC[C@H]1CC(OC(=O)[C@H](CO)c1ccccc1)C2 (some centres undefined)
 : -10.9% | -2.9% | -0.2%

Four compounds from above, arranged by the number in Pin1 inhibitor, lowest first.
| SMILES | Pin1 inhibitor | GLS inhibitor | Tb PGK inh |
| --- | --- | --- | --- |
| CN1[C@@H]2CC[C@H]1CC(OC(=O)[C@H](CO)c1ccccc1)C2 (some centres undefined) | -10.9% | -2.9% | -0.2% |
| O=C(O)CC(O)C(=O)O (centres undefined) | -3.7% | -2.7%&4.5% | -7.1% |
| Cc1cc(C)c2nc(C)cc(N/N=C/c3ccc(O)cc3)c2c1 | -1.3% | 35.6%[activator] | -9.8% |
| O=C(CSc1nccc(=O)[nH]1)NCc1ccco1 | 0.3% | -19.3% | ? |

High-throughput results: PubChem BioAssay, National Center for Advancing Translational Sciences (NCATS)

Only part of the results is shown; rates above refer to the full screens.
